Source: PubChem (National Center for Advancing Translational Sciences (NCATS))
PINK1 expr mod = changes PINK1 expression | PINK1 immunofluorescence, high-content cytometry, 24 h | Potency, µM (titrated, usually from 76.6 µM), without a hit: at the highest dose activation (PINK1 increase), hits mostly activators | 410,000 tested, 0.2% active | AID 624263; active = well fitted activation curve with a large enough effect; inconclusive = small, poorly fitted or top-dose-only effect; inactive = flat fitted curve, though single readings scatter; cell line not stated here;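 further: potency means the concentration at half of the fitted maximal effect; % of control where 0% means no effect; nearly all actives have a fitted effect of over 65% in size; a mitochondrial uncoupler was the plate control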
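Decision-based qHTS: stable cells, 24 h exposure to five compound concentrations, CCCP as control. Fixed cells stained for PINK1 plus nuclear, mitochondrial and cell markers, cytometer read.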
TRPML1 agonist = activates the human TRPML1 channel | TRPML1-expressing cells, Ca2+ dye fluorescence, FDSS; host cell line not named in the record; reference of the full effect not given here | activation, % (test concentration not listed) | 410,000 tested, 0.12% active; in the data active = activation above about 50%; inconclusive = about 30% to 50%; inactive = below about 30%; further: 0% is about no effect; the text of the record puts the active cut at 80%
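Tetracycline-induced TRPML1-DL cells are seeded and incubated overnight before loading with a no-wash Ca2+ dye and quencher. Agonist activity is taken from the 110 s fluorescence read following compound pin-transfer on an FDSS, before EC80 54-4 challenge.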
D2 PAM = positive allosteric modulators of human D2 dopamine receptor | DiscoveRx D2 beta-arrestin cells, luminescence, 90 min; 100% = 57 uM dopamine signal | potentiation, % (test concentration not listed) | 360,000 tested, 0.23% active | AID 624464; active = potentiation of 50% or more; inconclusive = 30% to 50%; inactive = 30% or less;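 further: compound concentration not given in the record; tested on top of an EC20 dose of dopamine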
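PathHunter D2 cells, attached overnight at 37 deg C, received compound in DMSO plus dopamine at EC20 (50 nM final) for 90 min at 37 deg C. Beta-arrestin recruitment was read as luminescence after 1 h with detection reagent at ambient temperature.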
D2 ag = human D2 receptor agonism in beta-arrestin assay; DiscoveRx PathHunter D2 beta-arrestin, luminescence, 90 min; 100% = 57 uM dopamine signal; activation, % (no concentration beside the values); 360,000 tested, 0.084% active; in the data active = activation above about 40%; inconclusive = about 15% to 40%; inactive = below about 15%; further: compound concentration not given in the record; the text of the record calls up to 30% inactive
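Agonist mode: compounds alone added to overnight-plated D2 PathHunter cells for 90 min at 37 C, with 57 uM final dopamine (EC100) defining full response. Beta-arrestin recruitment detected by chemiluminescent reagent, read after 1 h at ambient temperature.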
Six1-Eya2 inh = Six1/Eya2 interaction inhibition | AlphaScreen GST-Six1/His-Eya2 binding, biochemical; active compounds read low; control for the full effect not named in the record | activity change, % (test concentration not listed) | AID 651725 | Q15475+O00167 | 360,000 tested, 0.56% active; in the data active = activity change below about -65%; inconclusive = about -30% to -65%; inactive = above about -30%; further: on the % scale 0 is the no-effect control and ±100 the full control effect
Target sequence (O00167 whole entry, looked up): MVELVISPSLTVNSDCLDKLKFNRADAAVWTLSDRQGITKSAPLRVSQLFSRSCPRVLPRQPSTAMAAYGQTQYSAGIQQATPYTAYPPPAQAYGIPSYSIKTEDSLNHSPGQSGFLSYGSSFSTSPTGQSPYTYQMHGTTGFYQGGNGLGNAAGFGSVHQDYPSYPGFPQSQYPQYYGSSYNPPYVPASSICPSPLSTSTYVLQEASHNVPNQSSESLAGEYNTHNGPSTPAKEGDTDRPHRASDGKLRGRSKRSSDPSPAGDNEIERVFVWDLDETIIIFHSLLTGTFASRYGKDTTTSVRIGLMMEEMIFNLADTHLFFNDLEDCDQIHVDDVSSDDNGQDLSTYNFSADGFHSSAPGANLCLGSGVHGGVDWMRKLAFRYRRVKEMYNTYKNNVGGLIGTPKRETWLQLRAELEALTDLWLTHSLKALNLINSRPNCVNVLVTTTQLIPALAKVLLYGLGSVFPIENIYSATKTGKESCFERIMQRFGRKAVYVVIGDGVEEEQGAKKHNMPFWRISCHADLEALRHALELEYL
Target sequence (Q15475 whole entry, looked up): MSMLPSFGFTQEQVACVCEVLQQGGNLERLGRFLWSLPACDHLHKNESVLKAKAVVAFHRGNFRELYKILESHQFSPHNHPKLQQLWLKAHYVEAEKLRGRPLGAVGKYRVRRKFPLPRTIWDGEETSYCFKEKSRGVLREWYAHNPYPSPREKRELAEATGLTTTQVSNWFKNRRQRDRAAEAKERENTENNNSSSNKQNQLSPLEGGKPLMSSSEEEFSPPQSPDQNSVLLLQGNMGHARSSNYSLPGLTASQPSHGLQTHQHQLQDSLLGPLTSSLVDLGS
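Six1/Eya2 binding was read as AlphaScreen signal after compounds were pinned into GST-Six1 plus His-tagged Eya2 (5X stock 250/500 nM) in pH 8.0 Tris/NaCl/TCEP buffer, beads added, then incubated 1 h, 37 C, dark.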
CtBP-E1A inh = inhibitors of CtBP/E1A interaction; AlphaScreen GST-E1A/His-CtBP binding, 1536-well; active compounds read low; control for the full effect not named in the record; activity change, % (test concentration not listed); 340,000 tested, 0.49% active; AID 651724; in the data active means activity change below about -65%; inconclusive means about -30% to -65%; inactive means above about -30%; further: on the % scale 0 is the no-effect control and ±100 the full control effect
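In 5 uL wells, 23 nL compound meets equimolar GST-E1A and His-CtBP (5X stock 125 nM each) for 2 h, 37 °C. Beads (5X, 50 ug/mL) then 1 h, 37 °C, dark.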
* = called active by the depositor; ? = inconclusive; . = not tested or not shown; & = joins results of further samples; [ ] = another dose, or the depositor's remark. This is a random part of the collection; any-hit rate near 1.3%.

SMILES	PINK1 expr mod	TRPML1 agonist	D2 PAM	D2 ag	Six1-Eya2 inh	CtBP-E1A inh
Cn1c(CCNC(=O)c2ccco2)nc2cc([N+](=O)[O-])ccc21	-0.1%	0.2	-24.0	-4.0	-2.2	5.4
O=C(CC1SC(N2CCOCC2)=NC1=O)Nc1ccc(Cl)c(C(F)(F)F)c1 (configuration not stated)	1.9%	-0.1	-37.2	-0.1	7.2	.
Cc1ccc([C@H]2C[C@@H](n3cc(COC(=O)c4ccccc4)nn3)[C@H](O)CN2Cc2cccs2)cc1	1.6%	-0.4	0.9	-7.7	6.2	-4.7
COc1ccc(/C=C/C2=CC(C)(C)NC(=S)N2)cc1	11.0%	-0.2	-17.6	-3.9	-4.7	-8.2
Cc1c(=O)n(OCc2ccccc2)c2ccccc2[n+]1[O-]	-2.4%	0.8	-0.3	1.2	4.8	2.1
COc1cc(/C=C/C(=O)OCC(=O)NCc2cccs2)ccc1OCC#N	6.5%	-0.3	-4.4	-3.8	0.1	4.6
Cc1nn(-c2ccccc2)c(C)c1C(=O)OCC(=O)N(C)c1c(N)n(Cc2ccccc2)c(=O)[nH]c1=O	-0.7%	-0.3	-14.6	-2.5	6.3	-0.5
CCOc1ccc(-c2nnc(SCC(=O)N3CCN(c4ccccc4)CC3)o2)cc1	-0.3%	-0.1	-0.9	-2.9	4.2	3.0
O=C(O)C1CCC(C(=O)O)O1 (configuration not stated)	1.7%	1.3	-3.2	-2.9	3.6	-0.6
CCN(C(=O)COC(=O)c1ccc([N+](=O)[O-])o1)C1CCCCC1	0.7%	-0.7	0.8	-0.4	2.1	.
O=C(Nn1cnnc1)c1cccc(S(=O)(=O)N2CCOCC2)c1	1.7%	0.3	-3.2	-2.3	15.2	9.7
CC1O[C@@H](OC2C(O)C(C)O[C@H](OC(=O)[C@]34CCC(C)(C)C[C@H]3C3=CCC5[C@@]6(C)CC(O)C(O[C@@H]7OC(CO)C(O)[C@@H](O)[C@@H]7O)[C@@](C)(C(=O)O)C6CC[C@@]5(C)[C@]3(CO)CC4)C2O[C@H]2OC(C)[C@@H](O[C@@H]3OCC(O[C@@H]4OC(CO)C(O)[C@H](O)C4O)[C@@H](O)[C@@H]3O)[C@H](O)C2O)C(O)C(O)C1O (some centres not stated)	2.2%	0.0	-1.3	-0.4	0.7	8.3
COc1ccc(CCNC(=O)c2cc(=O)n(C)c(=O)n2C)cc1OC	3.2%	0.0	-7.4	-6.0	16.0	4.9
CN(C)c1cccc(CNC(=O)c2ccc3sc([C@H]4C[C@H](O)[C@@H](CO)O4)nc3c2)c1	0.1%	-0.7	1.9	2.1	-26.9	-24.0
COc1ccccc1CCC(=O)Nc1ccc(C)cc1Cl	1.8%	0.3	3.6	-7.6	35.9	23.0
CCC(=O)NCC(c1cccs1)N1CCOCC1 (configuration not stated)	-0.4%[38.3 µM]	0.3	-2.9	-0.6	4.5	8.4
CCC(C)NC(=O)C1CCN(S(=O)(=O)CC)CC1 (configuration not stated)	0.1%[38.3 µM]	0.2	-6.8	0.4	-0.7	15.7
C/C(N)=C(/C#N)C(=O)CSc1nc2ccccc2n1CC(C)C	3.3%	0.5	-2.5	-2.3	-1.2	.
CC1=C(C)CC(C(=O)Nc2ccc(C(=O)N3CCOCC3)cc2)C(C(=O)O)C1 (configuration not stated)	1.3%	1.0	-1.0	-1.7	-0.5	-3.8
COc1ccc(C(=O)NCc2cn3cccc(C)c3n2)cc1OC	0.4%	-0.7	-10.1	-6.6	-2.0	-4.4
CCn1cc(C(C)NC(=O)Nc2ccc3c(c2)OCO3)c(C)n1 (configuration not stated)	-1.0%	0.2	-5.5	2.4	3.0	0.0
CC(C)C(=O)Nc1ccc2c(c1)nc(CCN1CCN(c3ccccn3)CC1)n2C	1.5%	0.0	-2.1	?	10.8	2.7
COc1ccc(N2CCN(C(CNC(=O)C(=O)NCCc3c[nH]c4ccccc34)c3ccco3)CC2)cc1 (configuration not stated)	11.5%	0.4	-5.0	0.7	1.9	-16.0
O=C(Cc1ccc(S(=O)(=O)N2CCCCC2)s1)Nc1cccc2ccccc12	?	0.6	4.9	0.1	-11.5	5.1
Cc1cc(C)n(-c2nc3nonc3nc2-n2nc(C)cc2C)n1	0.3%	0.2	-14.8	-3.9	-0.7	2.4
CCc1ccc(CN2CCC(n3nccc3NC(=O)Cc3ccccc3)CC2)o1	-1.5%	0.5	-45.4	-1.6	-0.2	2.8
COCCN(CC1CCCN(C2Cc3ccccc3C2)C1)C(=O)CCC(N)=O (configuration not stated)	-0.2%	0.2	-24.5	2.0	1.7	-7.8
O=C(CSc1nnc(-c2cccnc2)o1)Nc1ccc(Br)cc1	0.0%	0.7	2.5	-0.7	7.8	-10.8
COc1ccc(CNC(=O)C2CCN(S(=O)(=O)c3cccc4nsnc34)CC2)cc1	2.9%	4.3	-6.8	1.3	-0.6	.
CC(=O)Nc1ccc(Cl)cc1C1COC(=O)C1=N (configuration not stated)	0.8%	0.0	-14.7	-8.3	6.0	-0.2
c1ncn(C23CC4CC(CC(C4)C2)C3)n1	1.5%	0.0	-14.4	-1.7	3.4	-3.0
CCOc1cc(/C=C/c2nc3ccccc3s2)ccc1OCC(=O)N1CCOCC1	-2.5%	0.6	-22.9	-2.4	1.8	15.3
O=C(Oc1cccc(NC(=O)c2cccs2)c1)c1cccc(S(=O)(=O)N2CCCC2)c1	6.8%	0.8	11.4	-1.9	-25.3	-2.0
CSc1ncccc1C(=O)OC(C)C(=O)Nc1cccc(S(=O)(=O)N2CCOCC2)c1 (configuration not stated)	-0.1%	1.8	-5.1	-2.8	-9.6	-2.9
Cc1cc(Nc2ccccc2F)n2ncnc2n1	3.5%	-0.1	-2.0	-9.0	5.3	-15.3
Cc1cc(Cl)n2ncc(-c3ccccc3)c2n1	0.8%	1.2	-31.3	-1.6	-5.4	-24.6
CCN1C(=O)C(C(=O)c2ccccc2)SC1=S (configuration not stated)	0.8%	-0.1	0.1	-0.3	-6.6	-2.5
CCOc1cc(CN2CCC(CO)(Cc3cccc(C(F)(F)F)c3)CC2)ccc1OC	0.5%	-0.2	-5.2	-1.1	-6.1	-6.0
COc1ccc(NC(=O)c2ccc3nc(-c4ccccc4)c(-c4ccccc4)nc3c2)c(OC)c1	?	0.7	-7.3	-2.8	8.9	1.7
O=C(CC(Nc1ccc(F)cc1)c1ccccc1)c1ccccc1 (configuration not stated)	3.5%	0.5	-3.4	0.8	-1.4	-9.7

Quoted at random: 2 records from the list, in no set order.
SMILES	PINK1 expr mod	TRPML1 agonist	D2 PAM	D2 ag	Six1-Eya2 inh	CtBP-E1A inh
O=C(O)C1CCC(C(=O)O)O1 (configuration not stated)	1.7%	1.3	-3.2	-2.9	3.6	-0.6
C/C(N)=C(/C#N)C(=O)CSc1nc2ccccc2n1CC(C)C	3.3%	0.5	-2.5	-2.3	-1.2	.

Back to the main list, repeating the 2 entries before the break.
SMILES	PINK1 expr mod	TRPML1 agonist	D2 PAM	D2 ag	Six1-Eya2 inh	CtBP-E1A inh
COc1ccc(NC(=O)c2ccc3nc(-c4ccccc4)c(-c4ccccc4)nc3c2)c(OC)c1	?	0.7	-7.3	-2.8	8.9	1.7
O=C(CC(Nc1ccc(F)cc1)c1ccccc1)c1ccccc1 (configuration not stated)	3.5%	0.5	-3.4	0.8	-1.4	-9.7
COc1cc(C2NC(=O)NC(C)=C2C(=O)OCC2CCCO2)cc(OC)c1OC (configuration not stated)	4.0%	-0.3	3.2	-5.4	5.2	1.6
CCCCc1c(C(=O)O)cc(OC)cc1C(=O)O	2.2%	-0.5	-9.8	-2.6	3.7	5.8
O=C(C1COc2ccccc2O1)N1CCN(Cc2ccc3c(c2)OCO3)CC1 (configuration not stated)	-1.6%	0.1	-41.4	-2.0	0.0	-0.3
CC1(C(=O)NS(=O)(=O)c2ccc(Cl)s2)CCN1C(=O)C1CCCCC1 (configuration not stated)	-0.3%	-0.4	-5.7	-4.2	12.6	-7.5
Cc1nc(C)c(C(=O)NCc2ccc(Cl)cc2)o1	7.7%[38.3 µM]	-0.4	-12.6	1.3	2.7	0.2
CCOC(=O)C1(Cc2ccc(OC)cc2)CCN(C(=O)c2ccoc2C)CC1	1.4%	0.3	-2.1	-5.0	-1.8	1.4
Cc1cccc(S(=O)(=O)Nc2nc3ccccc3nc2NCC2CCCO2)c1 (configuration not stated)	0.3%	.	-1.9	1.4	6.1	-17.6
CCN(CCC(=O)Nc1ccc(Br)c(C)c1)Cc1ccccc1	13.3%	0.4	-14.5	-3.1	1.9	0.0
Cc1ccc(C2(c3ccccc3)NC(=O)N(CC(=O)NC3CCS(=O)(=O)C3)C2=O)cc1C (configuration not stated)	4.3%	0.4	-1.6	-4.4	-2.9	1.2
CC(OC(=O)CCC1CCCC1)C(=O)Nc1ccccc1[N+](=O)[O-] (configuration not stated)	8.0%	3.3	9.5	1.2	?	-2.0
CCC1CN(C(=O)N2CCC(C(=O)NCc3ccco3)CC2)c2cc(C)ccc2O1 (configuration not stated)	1.6%&0.1%	-1.0&1.0	-51.1	-3.8	-2.2	-4.1
CCOCCCNC(=O)NC12CC3CC(CC(C3)C1)C2	12.7%[38.3 µM]	1.7	-0.1	-2.5	2.2	3.6
O=c1cc(Cc2nnc(SCc3ccccc3)n2-c2ccc(Cl)cc2)[nH]c(=O)[nH]1	-0.8%	1.9	-3.6	-7.5	2.0	1.1
O=C(NCCc1c[nH]c2ccccc12)Nc1cccc2ccccc12	-0.8%	0.2	-12.3	1.5	-0.8	-1.5
CC(NC(=O)COC(=O)/C=C/c1ccc(Cl)cc1)c1ccccc1 (configuration not stated)	0.7%	-0.6	-5.0	0.5	5.7	-1.7
COCCCN1CCN(C2Cc3ccccc3Sc3ccc(Cl)cc32)CC1 (configuration not stated)	-1.5%	-0.2	-42.4	-3.1	-20.0	-19.4
CCOC(=O)C1CCN(S(=O)(=O)c2ccc(Cl)nc2)CC1	0.4%	0.5	-2.5	-1.3	3.8	1.5
COc1cccc(/C(C)=N/NC(=O)c2cc(-c3cccnc3)nc3ccccc23)c1	4.5%	1.1	-4.6	2.0	-2.6	.
COc1ccc(C(=O)NCC(=O)OCC(=O)Nc2c(C)n(C)n(-c3ccccc3)c2=O)cc1	0.3%	-0.5	-2.1	-2.4	0.5	5.7
COc1ccc(C)cc1S(=O)(=O)Nc1cccc(C)c1	-2.1%	0.5	-5.4	1.2	0.2	2.0
NS(=O)(=O)c1ccc(CCNC(=O)c2ccc(Cl)nc2)cc1	-0.6%	0.4	-3.4	-1.1	-0.8	-0.4
CCc1cc(C(=O)NNC(=S)Nc2ccccc2C)cs1	1.9%	0.8	-25.3	-10.1	19.4	0.0
Cc1ccc(C(=O)NNC(=O)c2ccccc2)cc1S(=O)(=O)N1CCCCC1	-0.3%	-0.8	-0.4	-3.6	6.9	.
CCC(=O)OCC(=O)[C@@]1(OC(=O)CC)[C@@H](C)C[C@H]2[C@@H]3CCC4=CC(=O)C=C[C@]4(C)[C@@]3(Cl)[C@@H](O)C[C@@]21C	3.6%	-0.7	-2.9	10.6	3.0	-0.9
CCOC(=O)c1sc(NC(=O)CN2CCCC2)c(C(=O)OCC)c1C	11.0%	-0.5	-6.3	-3.3	9.2	10.2
C#CCOc1ccc(C2C3=C(CC(C)(C)CC3=O)N(CC(=O)O)C3=C2C(=O)CC(C)(C)C3)cc1OC	1.5%	.	8.6	1.8	-1.7	.
